Screening data deposited in PubChem BioAssay by Broad Institute.
Tgondii IFNg: T. gondii growth inhibition with IFN-gamma, primary screen, cell-based | Toxoplasma gondii growth in IFN-gamma-treated host cells; active compounds read low; reference of the scale not given here | activity change, negative = inhibition, %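 (about 20 µM by stock and volumes)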 | actives 3.8% (n = 69,000);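 active = below -70%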;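 also: host cells are HeLa cells infected with Toxoplasma gondii; parasite growth read as luciferase light; one replicate is shown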
Active calls of the source: *; & = joins results of further samples.

Molecule	Tgondii IFNg
CCN1CCC2(CC1)OC(=O)C(C)=C2C(=O)Nc1cc(F)ccc1F	191.7
CCc1nn2c(NCCO)c(C)c(C)nc2c1-c1ccc(F)cc1	2.7
O=C(c1cccc2c1OCCO2)N1CC[C@@H](c2ccc3c(c2)OCO3)[C@H](O)C1	5.3
Cc1cccc(S(=O)(=O)N2C[C@H](O)COC[C@@H]3O[C@H](CC(=O)Nc4ccccc4)CC[C@H]32)c1	-54.8
Cc1c(OCC(=O)NC(Cc2c[nH]c3ccc(O)cc23)C(=O)O)ccc2c3c(c(=O)oc12)CCC3 (stereo unspecified)	-4.2
Cc1noc(C)c1S(=O)(=O)Nc1ccc2c(c1)C(=O)N([C@@H](C)CO)C[C@@H](C)[C@@H](CN(C)Cc1ccc(C(=O)O)cc1)OCCCC[C@@H](C)O2	4.8
CN1CCN(CCn2cnc(-c3ccccc3)c2-c2cnc[nH]2)CC1	-2.4
C/C=C/c1cnc2c(c1)C(=O)N([C@H](C)CO)C[C@@H](C)[C@H](CN(C)CC1CCOCC1)O2	-54.9
O=C([C@@H]1CCO[C@@H]2CCN(Cc3cccc(F)c3)C[C@H]21)N1CCCO1	12.5
CC(=O)N1CCC(c2ccnc3c(C(=O)N4CCCN(C)CC4)ncn23)CC1	4.7
COC(=O)CN1C(=O)N(CCc2ccccc2)C2(CCN(C3Cc4ccccc4C3)CC2)C1=O	-0.8
Cc1ccc(Cc2ccccc2C(=O)NC2CCC(n3cnnc3)CC2)cc1 (stereo unspecified)	-1.3
Cn1ccc2c(-c3ccc(C(=O)N4CCCC4)cn3)ccnc21	51.6
CCNC(=O)c1cccc(-c2cc(N)nc3[nH]ccc23)c1	21.9
COc1ccc(S(=O)(=O)N(C)C[C@@H]2OCCCC[C@@H](C)Oc3ccc(NC(=O)Cc4ccccc4)cc3C(=O)N([C@@H](C)CO)C[C@@H]2C)cc1	-32.1
CCO[C@@H]1C[C@H]2CN(S(=O)(=O)c3cccs3)CCN2C1	1.9
Cc1ccc(C(=O)Nc2ccc(-c3nc(-c4ccc(C)cc4)co3)cc2)cc1	42.6
COc1ccc(CN2CCC3(CC(Nc4ncc(F)cn4)CO3)C2)cc1 (stereo unspecified)	-4.5
CSc1scc(NS(=O)(=O)c2ccc(Cl)cc2)c1S(=O)(=O)C(C)C	-46.5
O=C1CCCN1CCCC(=O)N1C2CCC1Cn1c(nc3ccccc3c1=O)C2 (stereo unspecified)	-8.1
CCCn1cc(CNC(=O)c2cccc(CC3CCNCC3)c2)cn1	-6.4
COc1ccc(S(=O)(=O)NC(Cc2cnc[nH]2)C(=O)O)cc1 (stereo unspecified)	-20.7
CC(C)C#Cc1ccc([C@H]2[C@H](CO)N3C(=O)CN(C(=O)NC4CCCC4)C[C@@H]23)cc1	-31.2
Cc1ccnn1CCNC(=O)C1(Cc2cccc(C3CCCN(C)C3)c2)CCOCC1 (stereo unspecified)	-1.0
COc1ccc2c(c1)OCC(Cc1ccc(O)c(OC)c1)C2=O (stereo unspecified)	1.8
COCCCC1CCCCN1C(=O)CC(=O)Nc1cc(C)cc(C)c1 (stereo unspecified)	2.3
CCCn1cnnc1CNC(=O)c1csc(-c2cccs2)n1	-8.7
CCC1CN(Cc2cnc(CC3CCCC3)[nH]2)CCN1C(C)C (stereo unspecified)	0.5
CCS(=O)(=O)N1CCC2(CC1)CC(OC)CO2 (stereo unspecified)	-84.8*
CCOCC1CN(C(=O)c2cc(C)on2)Cc2ncn(CC3CC3)c21 (stereo unspecified)	134.4
CCOc1ccc2nc(SCc3ccccc3)c(C#N)cc2c1	-102.5*
CN(C)CCN1C(=O)CCC12CCCN(C(=O)C1CCOC1)CC2 (stereo unspecified)	6.3
CNC(=O)c1c(I)c(C(=O)NCC(=O)Nc2c(I)c(C(=O)O)c(I)c(C(=O)NCCO)c2I)c(I)c(N(C)C(C)=O)c1I	15.7
COc1ccc2c3c([nH]c2c1)[C@H](CO)N(Cc1ccc(Cl)cc1)CC31CN(S(C)(=O)=O)C1	-41.5
CN1CCN(C(=O)c2cc(-c3ccn(-c4ccc(F)cc4)n3)n3ccccc23)CC1	-23.1
Cn1cc(-c2ccc(C(=O)N3CCCCC3CCn3cccn3)cn2)cn1 (stereo unspecified)	-4.7
CC(Cn1cccn1)C(=O)NCc1cccnc1N1CCN(C)CC1 (stereo unspecified)	4.2
CC(C)S(=O)(=O)c1csc(NC(=O)N2CCCCC2)c1Cl	10.0
Cc1nccnc1-c1ccnn1C(=O)Nc1cc(Cl)cc(Cl)c1	-81.7*
Cc1cc(C(=O)N2CCC(N(C)C)CC2C(=O)O)c(C)o1 (stereo unspecified)	76.3
COc1cc(CC(=O)N2C[C@@H]3[C@@H]4CC[C@@H](C4)[C@@H]3C2)cc(OC)c1OC	-2.8
CC(=O)N1CCC2(CC1)OC(=O)C(C)=C2C(=O)NCCN(CC(C)C)CC(C)C	36.0
COCC1CN(Cc2ccc(C)s2)Cc2nn(C)cc21 (stereo unspecified)	2.0
Cc1oc(C2CCN(S(=O)(=O)c3ccccc3F)CC2)nc1C(=O)N1CCCC1	29.5
COc1cc(S(=O)(=O)N(Cc2ccccc2F)C2CCCC2)ccc1-n1cnnn1	-46.2
CC1CCN(c2ccc3ccc(C(=O)N(C)C)cn23)CC1	60.6
CC(C)O[C@H]1CN(C(=O)CCNC(=O)c2ccc(F)cc2)C[C@@H]1O	4.5
CCCCNC(=O)CCC1N=C2c3ccccc3N=C(SCc3cc(=O)n4ccccc4n3)N2C1=O (stereo unspecified)	16.6
Cc1ccc(S(=O)(=O)N(C)C[C@H]2Oc3cc(C#CC4CCCC4)ccc3S(=O)(=O)N([C@@H](C)CO)C[C@H]2C)cc1	-131.8*
Cc1ccc(-c2nc(CCNC(=O)C(=O)Nc3ccc(C)c(F)c3)cs2)cc1	1.2
CS(=O)(=O)CC(=O)N1C[C@@H]2CN(Cc3ccoc3)CCO[C@@H]2C1	-6.5
CCC(C(=O)NCc1cccnc1)n1cc(C(C)=O)c2ccccc21 (stereo unspecified)	-62.8
Cc1ccc(C2(O)CCN(C(=O)c3cccc(S(C)(=O)=O)c3)CC2)nc1	18.1
CCOC(=O)CNC(=O)N1CCC2(CC1)Nc1ccccc1-n1cccc12	96.7
CO/N=C(\C(=O)N[C@@H]1C(=O)N2C(C(=O)OCOC(=O)C(C)(C)C)=C(/C=C\c3scnc3C)CS[C@H]12)c1csc(N)n1	-40.1&-15.8
Cc1ccc(S(=O)(=O)N2CCC[C@@H]2C(=O)NCCc2csc(-c3ccccc3)n2)c(C)c1	-14.4
O=C(c1cc2cccnc2n(Cc2ccccc2)c1=O)N1CCc2ccccc2C1	0.1
O=C(CCC1N=C2c3ccccc3N=C(SCc3cc(=O)n4ccccc4n3)N2C1=O)NCc1cccs1 (stereo unspecified)	14.4
O=C1CCC2(CCN1)CCN(Cc1cnc(C3CCCCC3)nc1)CC2	11.8
CC(C)CCNS(=O)(=O)c1cc2c3c(c1)CCC(=O)N3CCC2	178.7

The final 2 records of the part before are carried over, then new ones follow:
Molecule	Tgondii IFNg
O=C1CCC2(CCN1)CCN(Cc1cnc(C3CCCCC3)nc1)CC2	11.8
CC(C)CCNS(=O)(=O)c1cc2c3c(c1)CCC(=O)N3CCC2	178.7
CCCOCCN1CCN(c2ncc(C)c(N(C)C)n2)CC1	-4.4
O=C(c1cc2cccnc2n(Cc2ccccc2)c1=O)N1CCCCC1	35.1
CN1C(=O)c2ccccc2C(=O)[C@@]2(C)CN(C(=O)c3ccccc3)C[C@@H]12	-49.8
Cc1ccc2c(NC(=O)CCn3c(=O)oc4cc(Cl)ccc43)n[nH]c2n1	4.3
CC(C)c1cc(C(=O)Nc2ccc3c(c2)N(S(C)(=O)=O)CCC3)nn2cnnc12	-1.2
CCc1cnc(N2[C@H](C#N)[C@@H](c3ccccc3C3=CCCCC3)[C@@H]2CO)s1	-39.3
COCC(=O)Nc1ccc(-c2nc(Cn3nc(C)cc3C)c(C)o2)cc1	-41.3
Clc1ccc(-c2nc3cc(CN4CCCCC4)ccc3o2)cc1	54.1
NC(=O)c1c(-c2ccccc2)oc2ccc(O)cc12	9.4
C[C@@H]1CN([C@H](C)CO)C(=O)c2cc(NC(=O)Nc3cccc4ccccc34)ccc2O[C@H]1CN(C)S(=O)(=O)c1cccs1	19.5
CCN1c2cc(Cl)ccc2C(=O)NC12CCN(C(=O)Nc1ccc(C)cc1C)CC2	44.3
CC(C)CN1CC2(CCN(C(=O)C3CCC(=O)N3)CC2)COc2ccccc2S1(=O)=O (stereo unspecified)	76.5
COc1cc(Cl)cc(CN2CCC(CNC(C)=O)C2)c1OC (stereo unspecified)	-1.8
Cc1cccc(CN2C(=O)CCC23CCN(Cc2cccs2)CC3)c1	0.9
Cc1cc(N2CCN(C(=O)[C@@H]3C[C@@H]4C=C[C@H]3C4)CC2)nc2ccccc12	-46.1
CN1CCC2(COCCN(S(=O)(=O)c3ccc(F)cc3)C2)C1 (stereo unspecified)	92.4
C[C@H](NC(=O)C[C@H]1CC[C@H]2[C@@H](COc3ccc(NS(=O)(=O)c4ccc(Cl)cc4)cc3C(=O)N2C)O1)c1ccccc1	-37.0
CC1=CC[C@@H]2CN(C(=O)c3ccc(-c4nnn(C)n4)cc3)C[C@@H]2C1	4.1
CCC(=O)n1c2c(c3ccccc31)Nc1ccccc1N2	-0.2
CCc1nc(C)ccc1OCC(=O)N1CCC2(CN(C)C(=O)O2)C1 (stereo unspecified)	1.5
Fc1ccc(C2CN(Cc3cccc(OCc4ccccn4)c3)CCO2)cc1 (stereo unspecified)	-16.1
OC1(c2ccc(Cl)cc2)CCNCC1	29.1
CCC(Sc1nc2ccccc2s1)C(=O)Nc1cc(C)on1 (stereo unspecified)	-0.9
Cc1ccc(CN2CCC3(CC2)CC(NC(=O)C2CC2)CCO3)cc1C (stereo unspecified)	-5.1
CNC(=O)CCN(C)Cc1cc2n(n1)CCNC2	2.7
CCS(=O)(=O)N1CCC2(CC1)CN(c1cnn(C)c1)C(=O)CO2	-44.8
O=S(=O)(Nc1ccc(C2=NCCO2)cc1)c1ccc(Cl)cc1	-18.0
Cc1ccc(S(=O)(=O)N2CCc3onc(COCC4CC4)c3C2)cc1F	-4.3
CCOc1cc(CNC(=O)c2nc(N3CCOCC3)c3ccccc3n2)ccc1OC	-20.1
COc1ccc(CNC(=O)Nc2ccc(-c3nc(-c4ccccc4)co3)cc2)cc1	95.1

Three compounds picked at random from those above:
Molecule	Tgondii IFNg
COc1ccc(CNC(=O)Nc2ccc(-c3nc(-c4ccccc4)co3)cc2)cc1	95.1
Cc1ccc(S(=O)(=O)N2CCc3onc(COCC4CC4)c3C2)cc1F	-4.3
CCc1nc(C)ccc1OCC(=O)N1CCC2(CN(C)C(=O)O2)C1 (stereo unspecified)	1.5

(list continues)
Molecule	Tgondii IFNg
Cc1oc(-c2ccc(NC(=O)C(C)(C)C)cc2)nc1Cn1cccn1	-10.0
Cc1cc(C(F)(F)F)n2nc(C(=O)N[C@@H]3C[C@@H](CO)N(C)C3)cc2n1	-52.1
Cc1cccc(C)c1NC(=O)c1nnn(Cc2nc(-c3ccccc3)oc2C)c1C	-62.3
Cc1nc(C(C)N(C)Cc2nccn2C)c(C)s1 (stereo unspecified)	2.4
CCOc1cc(C(=O)N2CCC3(CC2)Nc2cc(F)ccc2-n2cccc23)cc(OCC)c1OCC	24.2
CS(=O)(=O)NC(=O)CCC/C=C\C[C@H]1C(=O)C[C@@H](O)[C@@H]1/C=C/[C@@H](O)COc1ccccc1	14.9
COCc1cnc2n1CCN(C(=O)COc1ccccc1C)C2C (stereo unspecified)	4.2
N#Cc1cccc(N2CCCC3(C2)CN(c2nncs2)CCO3)c1 (stereo unspecified)	8.4
c1csc(-c2oncc2-c2cnccn2)c1	4.0
O=C(OCC(O)CNC12CC3CC(CC(C3)C1)C2)C12CC3CC(CC(C3)C1)C2 (stereo unspecified)	-88.6*
C[C@H](CO)N1C[C@H](C)[C@H](CN(C)S(=O)(=O)c2cccc(C#N)c2)OCc2ccccc2-c2ccccc2C1=O	-30.9
COCCN1CCC(c2cc3c(ncn3C(C)C)c(N(C)CCOC)n2)CC1	4.4
C(=C\c1ccco1)/C1=NN(Cc2ccccc2)CC1	21.4
O=C(CSc1cn[nH]n1)Nc1ccccc1	-17.6
Cn1nnnc1SCC(=O)N1CCOCC1	-2.5
CCn1ncc2c1C(COC)CN(CC1CC1)C2 (stereo unspecified)	9.8
C[C@H](CO)N1C[C@H](C)[C@H](CN(C)S(=O)(=O)c2ccc([N+](=O)[O-])cc2)OCc2ccccc2-c2c(n(C)c3ccccc23)C1=O	-72.5*
Cc1ccc(N2CCCC3(CCNC3=O)C2)nn1 (stereo unspecified)	-17.1
COc1cccc2c1OCC(CN(C)Cc1snnc1C)=C2	10.6
CSc1ccc(-c2noc(-c3nnn(Cc4nc(-c5ccc(C)cc5)oc4C)c3C)n2)cc1	3.3
COCC(=O)N1CC2(C1)CN(Cc1ccc3c(c1)OCO3)[C@@H](CO)c1c2c2ccc(OC)cc2n1C	23.9
CN1CCC2(CC1)CN(Cc1ccco1)Cc1ccccc12	1.6
O=C(O)c1[nH]ncc1CN1CCCC(c2[nH]ncc2-c2ccccc2)C1 (stereo unspecified)	-1.0
CCOC(=O)CCSc1nnc(CNc2cccc(Cl)c2)n1CCc1ccccc1	19.4

This is a subset; the hit share may differ from the screen's.
